Assay outcomes as filed in PubChem.
KCNQ2 pot = potentiators of rat KCNQ2 potassium channel. B-score at 10 µM. CHO-K1 KCNQ2, FluxOR thallium flux fluorescence; hits give high values. AID 2239. O88943. actives 0.54% (n = 310,000);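 active = fluorescence ratio B-score at least 3 SD of library B-scores, with initial fluorescence B-score within 3 SD, cut at about 5.3 in these data; same plate scores as AID 2156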;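 note: B-score of peak minus minimum over baseline fluorescence ratio after K+ and Tl+ stimulus; positive B-score means potentiation of KCNQ2 with more thallium influx and brighter signal; only the inactives scoring about 0 or higher are listed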
Target sequence (O88943 whole entry, looked up): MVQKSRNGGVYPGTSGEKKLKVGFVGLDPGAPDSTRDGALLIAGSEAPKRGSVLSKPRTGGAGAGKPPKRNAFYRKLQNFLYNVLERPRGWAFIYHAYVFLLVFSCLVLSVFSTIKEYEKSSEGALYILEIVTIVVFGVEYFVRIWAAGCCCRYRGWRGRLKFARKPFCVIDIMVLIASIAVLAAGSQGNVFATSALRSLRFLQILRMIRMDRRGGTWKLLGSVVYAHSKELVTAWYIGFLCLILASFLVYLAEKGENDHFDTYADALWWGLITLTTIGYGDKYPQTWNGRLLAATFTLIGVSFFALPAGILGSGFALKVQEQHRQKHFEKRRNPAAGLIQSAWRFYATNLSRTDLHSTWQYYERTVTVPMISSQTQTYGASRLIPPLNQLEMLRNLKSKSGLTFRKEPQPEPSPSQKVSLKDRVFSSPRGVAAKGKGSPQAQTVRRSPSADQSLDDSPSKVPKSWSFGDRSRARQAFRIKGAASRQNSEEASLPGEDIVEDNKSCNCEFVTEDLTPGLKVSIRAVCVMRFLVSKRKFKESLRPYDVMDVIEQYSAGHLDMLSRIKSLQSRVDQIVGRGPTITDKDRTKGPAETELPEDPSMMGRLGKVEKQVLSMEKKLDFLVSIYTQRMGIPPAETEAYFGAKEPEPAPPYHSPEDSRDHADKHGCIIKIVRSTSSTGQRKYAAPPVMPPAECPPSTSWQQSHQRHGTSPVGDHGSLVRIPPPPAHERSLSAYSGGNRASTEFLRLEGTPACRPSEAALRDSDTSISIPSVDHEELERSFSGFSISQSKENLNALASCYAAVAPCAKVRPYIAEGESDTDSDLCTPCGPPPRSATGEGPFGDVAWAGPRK
KCNQ2 pot baseline = further read-out of KCNQ2 pot, marked with its call; B-score; compound at 10 µM; measured here: initial fluorescence intensity artifact check;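 brightness before thallium and not channel activity; 0 = typical well and far values either way flag optical interference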
An asterisk follows results filed as active. Some of the compounds tested; count on the stated rates, not on these rows.

The line under a structure holds: KCNQ2 pot	KCNQ2 pot baseline
- O=C(Nc1ccc(S(=O)(=O)NCc2ccccc2)cc1)Nc1ccc2c(c1)OCO2
 : 0.11	0.39
- CCOc1cc(C)c(Cl)cc1S(=O)(=O)NCCOC
 : 0.1	1.7
- CC(NC(=O)Nc1ccccc1)C(c1ccccc1)N1CCOCC1 (configuration not stated)
 : 0.37	-0.66
- O=C(O)CNC(=O)c1ccc(NC(=O)/C(=C/c2ccccc2)NC(=O)c2ccccc2Br)cc1
 : 1.18	-1.87
- O=C(NC1CCS(=O)(=O)C1)C1C2CC3CC(C2)CC1C3 (configuration not stated)
 : 0.26	-0.01
- FC(F)(F)c1nnc2ccc(N3CCN(c4ccccc4)CC3)nn12
 : 1.02	1.49
- Cc1ccc(CN2C3CCCC2CC(NC(=O)c2ccc(F)cc2)C3)cc1 (configuration not stated)
 : 0.41	-0.6
- CN(c1ccccc1)C1CCCCC1NS(=O)(=O)c1ccc(Cl)cc1 (configuration not stated)
 : 1.59	-0.75
- CCNC(=O)c1ccc(C2SCC(=O)N2CCc2ccccc2)cc1 (configuration not stated)
 : 0.6	-0.84
- Cc1ccsc1C(=O)N1CCN(c2ncc(C(F)(F)F)cc2Cl)CC1
 : 1.79	-0.03
- O=C(CN1C(=O)CCC1=O)Nc1nc(-c2ccccn2)cs1
 : 0.81	-2
- Nc1nc(-c2ccccc2)cc(-c2ccccc2)n1
 : 0.69	-0.85
- CCCCCOc1ccc(NC(=O)C2OC3OC(C)(C)OC3C3OC(C)(C)OC23)cc1 (configuration not stated)
 : 0.06	0.03
- Cc1ccc2nc(N3CCN(C)CC3)c(C#N)cc2c1
 : 0.99	0.57
- S=C1NC[C@H](CC2CCCCC2)N1CC1CCCCC1
 : 2.24	-0.44
- O=C(C/C(=N/O)c1ccccc1O)C(F)F
 : 0.92	0.65
- O=C(CCn1c(=O)[nH]c2ccccc2c1=O)NCCSCc1ccccc1
 : 0.9	-0.78
- COc1ccc(S(=O)(=O)NCc2ccccn2)c(C)c1C
 : 0.01	-1.14
- COc1ccc(Cl)cc1NC(=O)C1CC(c2ccccc2O)=NO1 (configuration not stated)
 : 1.1	0.36
- CC(=O)Nc1ccc(S(=O)(=O)Nc2nc3ccccc3nc2Nc2ccccc2)cc1
 : 2.06	0.6
- COc1ccc(CCNC(=O)Cn2nnc(C(=O)Nc3cccc(C)c3C)c2N)cc1OC
 : 1.21	-0.22
- CCCOc1ccc(CC2CCC(=O)NC2=O)cc1 (configuration not stated)
 : 0.96	0.41
- COc1ccc(CN(Cc2ccc(C(=O)O)cc2)C(=S)Nc2ccccc2Cl)cc1OC
 : 1.42	-0.62
- COCC(=O)N(C)c1nnc(-c2cnc(C)cn2)s1
 : 1.94	-1.01
- CCCc1nc2c([nH]1)C(c1cccnc1)C(C#N)=C(N)O2 (configuration not stated)
 : 2.38	-1.59
- COc1cc(NC(=S)N(C)CCC#N)c(OC)cc1Cl
 : 0.71	-0.99
- O/N=C/c1ccc2cccc(O)c2n1
 : 0.76	1.06
- O=C(NCN1CCCCC1)c1cnccn1
 : 0.71	0.61
- CCCOc1ccc(C(=O)ON=C2CCN(C)CC2)cc1
 : 0.87	0.52
- COC(=O)c1cc(-c2cccc(OC)c2)c2c(=O)[nH]c(=O)n(C)c2n1
 : 1.02	0.05
- CCC(=O)N1CCc2cc(S(=O)(=O)NC(C(=O)N3CCN(c4ccc(F)cc4)CC3)C(C)C)ccc21 (configuration not stated)
 : 0.19	-2.09
- CCCCN(CC)C(=O)c1ccc(Cl)cc1
 : 0.1	0.86
- Cc1ccc(S(=O)(=O)N2CCN(C(=O)N3CCOCC3)C2C)cc1 (configuration not stated)
 : 0.49	0.8
- Nc1nc(Cl)cc(Nc2ccccc2Cl)n1
 : 3.42	-0.99
- COCCCNc1ncnc2ccc(C)cc12
 : 1.72	-0.6
- CN(C)S(=O)(=O)c1ccc2c(c1)nc1n2CCC1
 : 0.59	-0.3
- CNc1ccc(C2(O)C(=O)c3ccccc3C2=O)cc1
 : 1.06	1.38
- CCOCCCNC(=O)c1cc(Nc2ccc(OC)cc2OC)nc2ccccc12
 : 0.29	0.24
- CC(C)N(CCc1ccncc1)C(=O)Nc1ccc(F)cc1
 : 0.25	0.6
- COc1ccccc1NC(=O)CSCc1ccc([N+](=O)[O-])cc1
 : 1.11	-2.22
- CN(C)CCNc1ncnc2c1sc1nc(N3CCOCC3)c3c(c12)CC(C)(C)SC3
 : 3.07	-2.73
- COc1ccccc1NC(=O)N1C2CCCC1CC(NC(=O)c1ccccc1)C2 (configuration not stated)
 : 0.53	0.86
- Fc1ccc(CSc2nncn2NCc2ccc3c(c2)OCO3)cc1
 : 0.29	-0.97
- Cc1ccc(NC(=O)CN2C(=O)NC3(CCc4ccccc43)C2=O)cc1 (configuration not stated)
 : 0.46	0.74
- CCOC(=O)c1cnc2cc(C)nn2c1-c1ccccc1
 : 0.46	0.18
- C=CCn1c(SCC(=O)NC2CCCCC2)nnc1-c1ccc(OC)cc1
 : 0.27	-1.35
- Cc1nc(-c2ccc(Cl)cc2)sc1C1(C)CC(c2ccc([N+](=O)[O-])cc2)=NO1 (configuration not stated)
 : 0.71	-0.16
- COc1ccc(NC(=O)C2CCN(S(=O)(=O)c3ccc(N4CCCC4=O)cc3)CC2)cc1OC
 : 1.93	-0.2
- COc1cccc(NC(=O)CSc2nnnn2C(C)C)c1
 : 1.78	-0.61
- CCCS(=O)(=O)N1CCCC(C(=O)NCc2ccc(C)cc2)C1 (configuration not stated)
 : 0.54	-0.7
- COc1cc(C2C(C(C)=O)=C(O)C(=O)N2CCc2c[nH]c3ccccc23)ccc1O (configuration not stated)
 : 1.48	0.61
- NC(=NCc1ccc2c(c1)OCO2)NC(=O)c1ccccc1
 : 0.59	1.36
- CCOC(=O)C1CCCN(C(=O)c2cccc(S(=O)(=O)N3CC(C)OC(C)C3)c2)C1 (configuration not stated)
 : 0.48	-1.34
- Cc1noc(C)c1S(=O)(=O)Nc1ccc(C(=O)NC2CCCCC2C)cc1 (configuration not stated)
 : 1.44	2.67
- COc1ccc(OC)c(NC(=O)Cn2cc(C#N)c3ccccc32)c1
 : 0.01	-1.81
- COCCn1c(N)c(C#N)c2nc3ccccc3nc21
 : 1.01	-1.05
- CN1CCN(CC(O)COCCOc2ccc(Br)cc2)CC1 (configuration not stated)
 : 1.13	-0.31
- c1cnn(-c2cncc(-n3cccn3)n2)c1
 : 0.03	-0.96
- CC1CN(Cc2nnc(-c3ccccc3)o2)CC(C)O1 (configuration not stated)
 : 0.62	-0.37
- O=C(NCCN1CCCOC1=O)C(=O)NCCN1CCCOC1=O
 : 0.42	1.09

(more compounds)
The line under a structure holds: KCNQ2 pot	KCNQ2 pot baseline
- Cc1oc2ccc(OC(=O)N3CCOCC3)cc2c1C(=O)OC(C)C
 : 0.73	-0.07
- O=C(NNc1ncnc2ccccc12)c1cccc(Cl)c1
 : 0.09	-0.7
- CCOc1ccc(C(=O)NC2CCN(C(=S)NCc3ccco3)CC2)cc1
 : 0.12	-0.72
- O=C(c1ccccc1[N+](=O)[O-])N1CCCN(C(=O)c2ccccc2[N+](=O)[O-])CC1
 : 0.24	-1.36
- Cc1cc(C)nc(NC(=O)c2ccc(Cl)cc2)n1
 : 0.19	0.44
- O=C(NC(=S)Nc1ccc(S(=O)(=O)Nc2nccs2)cc1)c1ccc(F)c(F)c1
 : 2.63	-1.93
- COc1ccc(OCC(=O)Nc2ccc(S(=O)(=O)Nc3cc(C)on3)cc2)cc1
 : 0.62	-0.22
- Cc1c(Cl)c([N+](=O)[O-])nn1CC(=O)N1CCCC1
 : 0.56	0.67
- CSc1ccccc1NC(=O)c1ccccc1
 : 0.6	0.17
- COc1ccccc1OCC(=O)Nc1ccc2c(c1)n(C)c(=O)n2C
 : 0.49	1
- O=S1(=O)CCOC[C@H](CC2CCCCC2)N1Cc1ccc(F)cc1
 : 1.2	-1.12
- O=C(Nc1ccncc1)c1ccc(-c2ccccc2)cc1
 : 3.62	-0.94
- N#Cc1cc2c(nc1S(=O)(=O)Cc1ccccc1)CCCC2
 : 0.06	0.98
- O=C(Nc1nc2c(s1)CCCC2)c1ccc2ncsc2c1
 : 2.54	1.5
- CCOc1nc2cnccc2n(CC(=O)Nc2cccc(C)c2)c1=O
 : 0.83	1.08
- Cn1c(SCc2cc(=O)[nH]c3ccccc23)nnc1-c1ccco1
 : 1.82	-0.96
- COC(=O)C1=C(N)c2c(F)cccc2C1(C#N)c1ccccc1 (configuration not stated)
 : 0.03	-0.45
- Cc1cccc(Nc2ncnc3onc(-c4cccc(Cl)c4)c23)c1
 : 0.42	-0.31
- COc1ccc2cc(C#N)c(N3CCOCC3)nc2c1
 : 0.8	1.22
- CCOC(=O)c1cc(-c2ccccc2)sc1NC(=O)C(C)N1C(=O)NC(C)(c2ccc(Cl)cc2)C1=O (configuration not stated)
 : 0.08	-0.22
- CC(=O)Nc1cc(C(C)(C)C)c(O)c(C(C)(C)C)c1
 : 1.09	-1.42
- [O-][n+]1c2c(nn1-c1ccc(Cl)c(Cl)c1)-c1nonc1CC2
 : 1	-2.02
- Cc1[nH]c2ccccc2c1SCC(=O)Nc1nccs1
 : 0.14	-2.14
- CCOc1ccc(Nc2nc(N)c([N+](=O)[O-])c(NCc3ccccc3)n2)cc1
 : 1.77	0.04
- CCC(C)n1c(S(=O)(=O)O)nc2ccccc21 (configuration not stated)
 : 1.67	0.4
- Cc1ccc(OCC(=O)NNC(=O)C2CCN(c3ncnc4sc(C)c(C)c34)CC2)cc1
 : 0.19	-0.05
- O=[N+]([O-])c1ccc(/C=N/N2CCCCC2)cc1
 : 1.21	0.94
- CCOC(=O)c1c(-c2ccc(C)cc2)csc1NC(=O)C1CCCO1 (configuration not stated)
 : 0.38	0.8
- CCn1c(CCC(=O)O)nc2cc(S(=O)(=O)N(C)C)ccc21
 : 0.55	-0.86
- Cc1cc(=O)oc2cc(OC(=O)CCN3C(=O)c4ccccc4C3=O)ccc12
 : 1.72	0.38

In another format: entries from further up.
> CCOC(=O)c1c(-c2ccc(C)cc2)csc1NC(=O)C1CCCO1 (configuration not stated)
  KCNQ2 pot: 0.38
  KCNQ2 pot baseline: 0.8
> CCn1c(CCC(=O)O)nc2cc(S(=O)(=O)N(C)C)ccc21
  KCNQ2 pot: 0.55
  KCNQ2 pot baseline: -0.86
> Cc1cc(=O)oc2cc(OC(=O)CCN3C(=O)c4ccccc4C3=O)ccc12
  KCNQ2 pot: 1.72
  KCNQ2 pot baseline: 0.38

New compounds follow.
The line under a structure holds: KCNQ2 pot	KCNQ2 pot baseline
- CC(=O)Nc1cccc(NS(=O)(=O)c2cccc3nsnc23)c1
 : 0.27	-0.23
- O=C1c2ccccc2-c2c1cccc2C(=O)N(CCO)CCO
 : 0.03	-1.2
- Cc1cccc(NC(=O)C2C(c3ccccc3)C2(Cl)Cl)c1C (configuration not stated)
 : 0.04	0
- CNC(=S)N1CCN(C(=O)C2CCCO2)CC1 (configuration not stated)
 : 0.43	-1.09
- CCC1=C2CC[C@H]3C(=O)N(C)C(=O)[C@H]3[C@H]2[C@@]2(Cc3ccccc3)C(=NCCOC)OC(=O)N2C1=O
 : 0.55	1.4
- CC(CN1CCOCC1)OC(=O)c1ccc(Br)cc1 (configuration not stated)
 : 0.44	2.19
- O=C(c1nc2ccc(Cl)cn2c1CN1CCC(O)CC1)N1CCc2ccccc2C1
 : 0.37	-0.89
- O=C(O)CSc1ncnc2sc3c(c12)CCCC3
 : 0.08	3.51
- COc1cccc(-c2ccc(C#N)c(=O)[nH]2)c1
 : 0.95	-0.72
- C=CCN(c1ccccc1)S(=O)(=O)c1ccc(Cl)c(C(=O)OCC(=O)c2[nH]c(C)c(C(C)=O)c2C)c1
 : 0.62	-0.84
- O=C(CSc1ccc(-c2ccccn2)nn1)N1CCCC1
 : 1.32	-0.32
- CS(=O)(=O)N(CC(=O)N1CCCCC1)c1ccc2c(c1)OCO2
 : 2.36	0.04
- CCCCC(=O)NCc1ccccc1Cl
 : 0.32	1.13
- Cc1ccc(C(=O)OCC(=O)NCCC2=CCCCC2)s1
 : 1.97	0.43
- Cc1cc(OC(=O)N2CCOCC2)cc(C)c1Cl
 : 1.99	1.06
- O=C(NCCC(=O)N1CCN(c2ccccn2)CC1)c1ccc(Br)cc1
 : 0.86	-0.54
- COc1ccc(Nc2ncnc3ccc(C)cc23)cc1
 : 1.13	3.05
- CCCOc1ccc(C2NC(=O)NC(c3ccccc3)=C2C(C)=O)cc1OCC (configuration not stated)
 : 1	0.11
- Cc1nc2ncnn2c(C)c1CCC(=O)NCc1ccccc1
 : 0.3	-1.81
- CCC(=O)NCc1cc(-c2nn(C)c(=O)c3ccccc23)ccc1C
 : 1.13	-0.57
- COc1ccc(/C=N/n2c(C)cc(C)c(C(N)=O)c2=O)cc1
 : 0.39	-0.82
- O=C(N/N=C/c1cccc(OC(=O)c2ccco2)c1)c1ccc(F)cc1
 : 0.33	0.47
- S=C(Nc1ccccc1Cl)N1CCCCCC1
 : 0.14	0.37
- O=C(COC(=O)c1ccc(Cl)c(Cl)c1)NC1CCCC1
 : 0.13	0.11

Five entries out of the list above, sorted by their value in KCNQ2 pot, smallest number first.
The line under a structure holds: KCNQ2 pot	KCNQ2 pot baseline
- O=C(O)CSc1ncnc2sc3c(c12)CCCC3
 : 0.08	3.51
- O=C(COC(=O)c1ccc(Cl)c(Cl)c1)NC1CCCC1
 : 0.13	0.11
- CCCCC(=O)NCc1ccccc1Cl
 : 0.32	1.13
- CCC1=C2CC[C@H]3C(=O)N(C)C(=O)[C@H]3[C@H]2[C@@]2(Cc3ccccc3)C(=NCCOC)OC(=O)N2C1=O
 : 0.55	1.4
- COc1ccc(Nc2ncnc3ccc(C)cc23)cc1
 : 1.13	3.05
